# High-throughput results as filed in PubChem BioAssay.
# StopGo FLuc: Primary qHTS Assay for Foot and Mouth Disease Virus Antivirals against NCGC Sytravon and CBC Compound Libraries: Firefly Luciferase Signal; HEK cells with a luciferase reporter of 2A StopGo recoding; Potency, µM (highest dose often 57.5 µM), for inactives: top-dose signal change, negative = less light; actives 0.23% (n = 120,000); AID 1745856, 2022; active = well fitted falling curve with a large enough effect; inconclusive = small, poorly fitted or top-dose-only effect; inactive = no such curve, though single readings can be large or run the other way; further: nearly all actives have a fitted effect of over 60% in size; overnight with compound
# StopGo RLuc: Primary qHTS Assay for Foot and Mouth Disease Virus Antivirals against NCGC Sytravon and CBC Compound Libraries: Renilla Luciferase Signal | HEK cells with a luciferase reporter of 2A StopGo recoding | AID 1745857, 2022 | Potency, µM (top dose mostly 57.5 µM), without a hit: at the top dose signal change, negative = less light | actives 0.32% (n = 120,000); active means well fitted falling curve with a large enough effect; inconclusive means small, poorly fitted or top-dose-only effect; inactive means no such curve, though single readings can be large or run the other way; further: nearly all actives have a fitted effect of over 55% in size; overnight with compound
# Active calls of the source: *; ? = inconclusive; & = joins results of further samples; [ ] = dose if it differs, or a comment. On the % scale 0 is the no-effect control and ±100 the full control effect; potency means the concentration at half of the fitted maximal effect. An excerpt; count on the stated rates, not on these rows.
SMILES,StopGo FLuc,StopGo RLuc
Cc1ccc(-c2nc(CS(=O)(=O)CC(=O)NC(C)CCc3ccccc3)c(C)o2)cc1 (stereo not given),-10%,-3%
Cc1cc(C)c(-c2cc(C(=O)Nc3ccc(C)c(C)c3)[nH]n2)c(O)c1,-3%,-14%
CN(Cc1ccccc1)C(=O)COc1ncnc2ccc(Br)cc12,2%,-3%
CCOC(=O)c1cc2c(=O)n3ccccc3nc2n(Cc2ccco2)c1=NC(=O)c1c(F)cccc1Cl,-2%,3%
COC(=O)c1cc(NC(=O)C2CC(=O)n3c(nc4ccccc43)N2)cc(C(=O)OC)c1 (stereo not given),0%,8%
Cc1ccc(NC(=O)CN(C)C(=O)c2cccc(S(=O)(=O)NCC3CCCO3)c2)cc1 (stereo not given),16%,67%[activator]
Cc1oc(-c2ccc(C(=O)NCc3ccccc3Cl)cc2)nc1CN1CCc2ccccc21,17%,-3%
CCOc1ccc(-c2cc3c(=O)n(CC(=O)Nc4c(C)cccc4C)ccn3n2)cc1,12%,-3%
O=C(O)c1ccccc1OCc1cn2ccccc2n1,40%[activator],7%
CCN(CC)C(=O)N1CCN(Cc2nc(C(C)C)no2)CC1,33%[activator],-3%
Cc1ccc(S(=O)(=O)N[C@@H](CCCCN)C(=O)CCl)cc1,-12%,-10%
CC(C)Oc1ccc(CNC(=O)Nc2ccc3c(c2)N(C)C(=O)c2ccccc2S3)cc1,?,?
O=Cc1cc(Cc2ccccc2Cl)cc(Br)c1O,0%,-2%
CN(Cc1cccc(F)c1)C(=O)c1cccc(NS(C)(=O)=O)c1,3%,18%
Cc1[nH]c(SCC(=O)Nc2cccc(S(=O)(=O)N3CCCC3)c2)nc1Cc1ccccc1,14µM*,-16%
O=C(c1cc(-c2cccs2)[nH]n1)N1CCN(c2ccccc2)CC1,25%,17%
Cc1ccccc1NC(=O)Nc1c(NC2CCCC2)c2ccccc2oc1=O,6%,-6%
CC(C)(C)c1ccc(OCC(O)CNS(=O)(=O)c2ccc(Br)cc2)cc1 (stereo not given),?,?
Cc1ccccc1-n1nnc(C(=O)NC2CCCC2)c1N,64%[activator],1%
O=C(Nc1cccc2cccnc12)c1cccc(Cl)c1Cl,8%,-4%
CCCCn1c(=N)n(CCCOc2ccc(F)cc2)c2ccccc21,?,3%
Cc1ccc(-n2ncc(C(=O)NC3CCCC3)c2C2CCN(C(=O)OC(C)(C)C)CC2)c(C)c1,-22%,22%
CC(=O)c1sc(Nc2cc(C)ccc2C)nc1C,12%,2%
COC(=O)Cc1c(C)c2c(OCc3nn[nH]n3)cc(C)cc2oc1=O,-3%,-20%
CC(C)NC(=O)c1cc(Cl)ccc1I,-7%,-7%
Cc1ccc(C(C)C)cc1C(=O)CC1(O)C(=O)N(C(C)C)c2ccccc21 (stereo not given),?,-28%
CCc1cccc(CC)c1NC(=O)CC(C#N)(C(C)=O)c1c(Cl)cccc1Cl (stereo not given),-3%,-1%
COc1ccc(CCN2C(=O)N(c3ccccc3)C(=O)C2CC(=O)Nc2ccccc2)cc1 (stereo not given),-1%,170%[activator]
COCCNc1nc(-c2ccc(NC(C)=O)cc2)cs1,97%[activator],10%
CCN(C(=O)Cc1cccc2cccnc12)C1CCS(=O)(=O)C1 (stereo not given),12%,-3%
COc1ccc(C(=O)Nc2c(NCC3CCCCC3)c3ccccc3oc2=O)cc1,2%,-1%
Cc1nn(-c2ccccc2)c(-n2cccc2)c1C(=O)NCc1ccccc1Cl,11%,3%
CCCNC(=O)NCC12CC3CC(CC(C3)C1)C2,30%[activator],26%
COc1ccc(-c2c(C)oc3cc(OCC(=O)Nc4ccc(OC)cc4OC)ccc3c2=O)cc1,-7%,-11%
N#CC1(NC(=O)CSc2ccccn2)CCCCC1,-1%,-4%
COCCNc1oc(-c2ccc(S(=O)(=O)N3CCCCCC3)cc2)nc1C#N,23%,274%[activator]
CN(Cc1ccc(Cl)c(Cl)c1)C(=O)c1ccc2c(c1)CCCN2S(C)(=O)=O,?,-15%
CN(C)S(=O)(=O)N(CC(=O)NCCSc1ccccc1)c1ccccc1,-6%,8%
N#Cc1cccc(NC(=O)C2CCN(c3ncccn3)CC2)c1,-11%,-12%
CCOC(=O)c1cnc2c(C)cc(C)cc2c1NCCc1ccc(OC)c(OC)c1,3%,0%
Cc1ccc(Nc2nc(NCCc3ccccc3)nc3c2cnn3C)cc1C,6%,-11%
CC(C)NC(=O)c1cc(C(C)C)[nH]n1,39%[activator],5%
Cc1nn(C(C)C)c(C)c1NC(=O)c1cc2occc2n1Cc1ccccc1Cl,0%,-3%
COc1ccc(-c2nnc(SCC(=O)NC3CCCC3)nc2-c2ccc(OC)c(OC)c2)cc1OC,-13%,17%
Fc1ccc(CNC2=NCCNC23CCCCCC3)cc1,6%,0%
Cc1ccc(-c2nc(C#N)c(NCC(c3cccs3)N(C)C)o2)cc1 (stereo not given),54%[activator],-6%
O=c1cc(CN2CCCCC2)c2cc(O)ccc2o1,18%,17%
CCCS(=O)(=O)N1CC(=O)N(c2ccc(C)c(Cl)c2)C(C)(C(=O)NC2CCCCCC2)C1 (stereo not given),-10%,-7%
CCNC(=O)C(C)Nc1nc(-c2ccccc2)nc2ccccc12 (stereo not given),74%[activator],39%[activator]
COc1ccc(C(=O)Nc2ccc3oc(-c4cccc5c(Br)cccc45)nc3c2)cc1,7%&-5%,-8%&-6%
Cc1cc(C(=O)CSc2nnnn2C2CCCC2)c(C)n1Cc1cccs1,?,36%[activator]
Cc1ccnc(NC(=O)C2CC(=O)N(Cc3ccccc3)C2)c1 (stereo not given),179%[activator],29%
CC(C)(C)c1ccc(C(=O)NCC(c2cccnc2)N2CCc3ccccc3C2)cc1 (stereo not given),?,?
CC1=C(C(=O)Nc2ccccc2)C(CC(C)C)n2nc(SCc3ccccc3C)nc2N1 (stereo not given),-7%,-4%
COc1ccccc1CNS(=O)(=O)c1c(C)nc2scc(C)n2c1=O,-15%,4%
CCCCc1nn2c(=O)cc(COC(=O)c3cccc(NC(=O)c4cccc(Cl)c4)c3)nc2s1,2%,0%
CCC1CN(C(=O)Nc2cccc3c2CCCC3)c2ccccc2O1 (stereo not given),-23%,-15%
COCc1c(C(C)C)nc(C(C)C)c(/C=C/[C@@H](O)C[C@@H](O)CC(=O)O)c1-c1ccc(F)cc1,-17%[11.5 µM],-22%
CCOc1cc(OCC)cc(C(=O)Nc2cccc(-c3nc4ccccc4[nH]3)c2)c1,-8%,-12%
COc1cc(-c2ccc(C)cc2)nc2ccc(C(=O)N3CCCC3)cc12,115%[activator],110%[activator]
# Continued.
SMILES,StopGo FLuc,StopGo RLuc
C=CCNc1nc(C(=O)OCC(=O)c2ccc(C(C)(C)C)cc2)cs1,41%[activator],-9%
Cc1cccc(N2CCN(CCCNc3ncnc4onc(-c5ccc(F)cc5)c34)CC2C)c1 (stereo not given),-14%,-11%
CCN1CCN(c2ncc3c(n2)CCN(Cc2cc(F)cc(F)c2)C3)CC1,23%,35%[activator]
COc1ccc(OC)c(CNC(=O)c2ncoc2-c2cccs2)c1,76%[activator],70%[activator]
COc1ccc(Cl)cc1NC(=O)C(C)N(C)CC(=O)Nc1ccccc1SC (stereo not given),-4%,0%
Nc1ccc(F)cc1C(=O)c1ccccc1,0%,25%
CCOc1ccc(C2=CC(c3cccc(Br)c3)n3c(nc4ccccc43)N2)cc1Cl (stereo not given),208%[activator],24%
CC(C)CN(CCNC(=O)c1cn(C)c2ccc(S(=O)(=O)N3CCCC3)cc2c1=O)CC(C)C,-13%,-1%
Cc1cc(C(=O)NNC(=S)NC(C)C)cs1,50%[activator],4%
Cc1cccc(Nc2nc(N)nc(N)c2S(=O)(=O)c2ccccc2)c1,7%,54%[activator]
N#Cc1cc(NC(=O)C2CC2)ccc1OCC(F)(F)F,16%,22%
COc1ccc(C)cc1NC(=O)CSc1ncc2c(n1)-c1ccc(Cl)cc1N(Cc1ccccc1)S2(=O)=O,0%,0%
COc1cc(-c2nnn(CC(=O)NCc3ccccc3)n2)cc(OC)c1OC,-15%,28%
Cc1ccccc1Cn1c(NCC2CCCO2)nc2c1c(=O)n(C)c(=O)n2C (stereo not given),11%,18%
CCOc1ccc2nc(N3CCC(C(=O)Nc4cc(C)ccc4C)CC3)sc2c1,43%[activator],-12%
CCCCN(C)C(=O)Cn1c(C2CC(=O)N(c3cccc(OC)c3)C2)nc2ccccc21 (stereo not given),11%,6%
Cc1nc(-c2cccc(NC(=O)c3ccc4[nH]c(C)c(C)c4c3)c2)cs1,?,-1%[1.06 µM]
CCCCN(CC)CCNC(=O)CN1C(=O)COc2ccc(S(=O)(=O)N3CCCC3)cc21,-17%,-6%
O=C(Nc1c(C(=O)c2ccc3c(c2)OCCO3)oc2ccccc12)c1ccc(F)cc1,2%,3%
COc1ccc(N2CCN(CCCNC(=O)Nc3ccccc3)CC2)cc1,-5%,-12%
COc1cc(C(CC(=O)Nc2ncccc2C)N2Cc3ccccc3C2=O)cc(OC)c1OC (stereo not given),-15%,111%[activator]
CCOC(=O)CNC(=O)CSc1cn(CC(=O)N2CCOCC2)c2ccccc12,2%,-6%
COc1ccc(C(=O)c2c(N)c(C(=O)Nc3cccc(OC)c3)c3ccccn23)cc1,-3%,-19%
Cc1cccc(C(=O)c2c(C)c(CCC#N)n3ccccc23)c1,23%,-1%
Cc1ccc(C)c(NC2=C(c3ccc(C(F)(F)F)cc3)C(=O)c3ccccc32)c1,-19%,12%
O=C(Nc1ccc(F)c(S(=O)(=O)N2CCOCC2)c1)c1ccccc1-c1ccccc1,2%,71%[activator]
CCN1Cc2nnn(Cc3ccccc3)c2-c2cc(F)ccc2S1(=O)=O,2%,100%[activator]
COc1ccc(-c2cc(C(F)(F)F)nc(N3CCN(Cc4ccccc4)CC3)n2)cc1OC,6%,6%
COc1ccc(NC(=O)C(C)n2cccn2)cc1Cl (stereo not given),11%,8%
C=CCNC(=O)c1ccccc1NC(=O)c1cccc(C#N)c1,24%,-12%[1.06 µM]
CC(=O)NC1=NN(C(C)=O)C(c2ccc(OCc3ccccc3F)c(Br)c2)S1 (stereo not given),-8%,-2%
CCn1cc(CNC(=O)Nc2cccc(Cl)c2)c(C)n1,213%[activator],12%
COc1ccc(C2CC(=O)Nc3c2c(C)nn3-c2nc(C)cc(C)n2)c(OC)c1OC (stereo not given),-3%,-8%
Cc1ccc(-n2ccnc(NCCc3ccccc3)c2=O)cc1C,89%[activator],0%
Cc1ccc(OCC(=O)NCC2(N3CCOCC3)CCCCC2)cc1C,-10%,-9%
OC1(c2ccccc2)CCNCC1,-8%[11.5 µM],6%
CC(C)NC(=O)Cn1c(=O)nc(-c2ccccc2F)c2cc(Cl)ccc21,-9%,-13%
Cc1cc2c(c(=O)n1Cc1ccccn1)C(C(C)C)C(C#N)=C(N)O2 (stereo not given),4%,8%
Cc1cc2c(sc3ccccc32)c(C)n1,0%,15%
COc1ccc(S(=O)(=O)NCC(=O)O)cc1,5%,-1%[1.06 µM]
Cc1cccc(Nc2nc(N)c(C(=O)c3ccc(Cl)cc3)s2)c1C,11%,-13%
CCCNC(=O)Cn1ncc2c3ccccc3n(CCC)c2c1=O,-3%,1%
Cc1ccc2ncc(C(=O)NC(C)c3ccccc3)c(=O)n2c1 (stereo not given),-3%,-7%
Cc1c(NC(=O)C(C)OC(=O)c2ccc3c(c2)OCO3)c(=O)n(-c2ccccc2)n1C (stereo not given),13%,2%
CC(C)(C)c1ccc(C(=O)NCCSc2c[nH]c3ccccc23)cc1,79%[activator],5%
O=C(NCCCN1CCN(c2ccccc2)CC1)c1nnc(Cc2c(F)cccc2Cl)o1,-11%,-23%
Clc1ccccc1-c1nc(CSc2nnc(C3COc4ccccc4O3)o2)no1 (stereo not given),27%,25%
CCCSc1ncc(Cl)c(C(=O)Nc2sc3c(c2C(=O)NCCOC)CCCC3)n1,20%,-13%

# Some of the entries so far, bar-delimited.
canonical_smiles | StopGo FLuc | StopGo RLuc
CC(=O)NC1=NN(C(C)=O)C(c2ccc(OCc3ccccc3F)c(Br)c2)S1 (stereo not given) | -8% | -2%
CCn1cc(CNC(=O)Nc2cccc(Cl)c2)c(C)n1 | 213%[activator] | 12%
COc1ccc(C2CC(=O)Nc3c2c(C)nn3-c2nc(C)cc(C)n2)c(OC)c1OC (stereo not given) | -3% | -8%
Cc1ccc(-n2ccnc(NCCc3ccccc3)c2=O)cc1C | 89%[activator] | 0%
Cc1ccc(OCC(=O)NCC2(N3CCOCC3)CCCCC2)cc1C | -10% | -9%
OC1(c2ccccc2)CCNCC1 | -8%[11.5 µM] | 6%
CC(C)NC(=O)Cn1c(=O)nc(-c2ccccc2F)c2cc(Cl)ccc21 | -9% | -13%
Cc1cc2c(c(=O)n1Cc1ccccn1)C(C(C)C)C(C#N)=C(N)O2 (stereo not given) | 4% | 8%
Cc1cc2c(sc3ccccc32)c(C)n1 | 0% | 15%
COc1ccc(S(=O)(=O)NCC(=O)O)cc1 | 5% | -1%[1.06 µM]
Cc1cccc(Nc2nc(N)c(C(=O)c3ccc(Cl)cc3)s2)c1C | 11% | -13%
CCCNC(=O)Cn1ncc2c3ccccc3n(CCC)c2c1=O | -3% | 1%
Cc1ccc2ncc(C(=O)NC(C)c3ccccc3)c(=O)n2c1 (stereo not given) | -3% | -7%
Cc1c(NC(=O)C(C)OC(=O)c2ccc3c(c2)OCO3)c(=O)n(-c2ccccc2)n1C (stereo not given) | 13% | 2%
CC(C)(C)c1ccc(C(=O)NCCSc2c[nH]c3ccccc23)cc1 | 79%[activator] | 5%
